Screens from PubChem.
Sa ugtP lethal = growth inhibition of S. aureus ugtP deletion strain | actives 0.54% (n = 330,000) | S. aureus RN4220 ugtP deletion, OD600 growth, 16 h; some inactives read as strong as hits | AID 1259309 | growth inhibition, % (test concentration not listed);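 active = z-score under -3 and OD600 up to 0.15 on both plates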;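 also: plate controls were untreated wells for no effect and antibiotic for full effect; wells of about 80 µL received 100 nL stock; the first replicate is given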
RN4220 kill = S. aureus RN4220 growth inhibition. actives 0.33% (n = 330,000). OD600, 16 h. inhibition, % (test concentration not listed). AID 1259311;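 active = z-score of -3 or lower and OD600 up to 0.18 on both plates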;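 also: plate controls were untreated cells for no effect and reference antibiotic for full effect; stock transfer was 100 nL into about 80 µL; one replicate is shown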
Autofluor counter = compound fluorescence in toxin protease inhibitor counterscreen. compound autofluorescence counterscreen, microsphere flow cytometry; active compounds read high. fluorescence intensity (test concentration not listed). actives 3.1% (n = 360,000). AID 624483;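 active = at least 3 SD above the mean of all compounds, about 16000 in these data; inconclusive = too few beads counted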;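 also: 100 nL of 1 mM stock went into each well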
BJeLR lethal = kills HRASV12-expressing BJeLR cells; inhibition, % (concentration not given with the values); BJeLR (HRASV12) viability, CellTiter-Glo ATP luminescence, 48 h; reference of the scale not given here; actives 0.17% (n = 300,000);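 active = replicate mean above 50%; inconclusive = above 50% but judged a plate artefact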;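 also: 50 nL library stock added to about 25 µL; numbers are from one replicate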
Mtb hypoxia inh = inhibitors of hypoxia-regulated fluorescent reporter in Mycobacterium tuberculosis; M. tuberculosis hypoxia-regulated fluorescent reporter, fluorescence; fluorescence inhibition, % (concentration not given with the values); actives 0.1% (n = 300,000);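 active = 35 to 45% if threefold the growth effect, above 45% if 1.5-fold the growth effect; inactive = the rest, general growth blockers included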;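 also: wells of about 50 µL received 100 nL stock; 0% = vehicle wells and 100% = reference inhibitor wells; whole bacteria with a GFP reporter of the hypoxia response; strong numbers were not always called active; many hits fall short of the cut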
PrP UTR inh = suppresses PrP 5' UTR mRNA reporter expression; cell-based PrP 5' UTR mRNA reporter, plate reader; AID 488862; actives 0.35% (n = 340,000); inhibition, % (test concentration not listed);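 active = every replicate at 50% or more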;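 also: 0 = median of the neutral control wells; tested in H4 reporter cells; numbers are from one replicate; inactives centre near -14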
Mtb hypoxia inh growth = second read-out of Mtb hypoxia inh, no call of its own (marks repeat the call); growth inhibition, %; measured here: M. tuberculosis growth (absorbance);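 0% = vehicle and 100% = reference antibiotic; read after six days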
An asterisk follows results filed as active; ? = inconclusive; . = not tested or not shown.

Screens in order: Sa ugtP lethal	RN4220 kill	Autofluor counter	BJeLR lethal	Mtb hypoxia inh	Mtb hypoxia inh growth	PrP UTR inh
(1) CCOc1ccccc1N1CCN(C(=O)Cc2ccc(S(=O)(=O)N3CCOCC3)s2)CC1
  6	3.9	4633	3	-6	-8	-24
(2) COc1ccccc1NC(=O)Cn1c(CCC(=O)O)ccc1-c1ccccc1
  -2	5.2	2617	1	5	0	-7
(3) COCCSc1nnc(-c2cnccn2)o1
  1	9.8	9023	-1	12	1	-21
(4) CCCN(c1ccccc1F)S(=O)(=O)c1c[nH]c(C(=O)OC)c1
  -1	4.7	5092	-1	0	5	-21
(5) O=C(C1CCCO1)N1CCN(C(=S)Nc2ccc(Cl)cc2Cl)CC1 (stereo not drawn)
  2	2.5	2028	-7	6	3	4
(6) O=C(COC(=O)c1ccc(F)cc1F)Nc1cc(S(=O)(=O)N2CCOCC2)ccc1Cl
  6	3.2	5310	.	12	-1	-24
(7) CCn1c(SCC(=O)N2CCCc3ccccc32)nc2cccnc21
  -2	3.5	.	-10	13	3	1
(8) Clc1ccccc1N1CCN(Cc2ccc3c(c2)OCO3)CC1
  7	0.6	3384	3	-5	12	-30
(9) Cc1sc2ncnc(NCC3(N4CCOCC4)CCCCC3)c2c1C
  6	0.1	4379	1	.	.	-7
(10) CCCc1nnc(NC(=O)CCC(=O)Nc2ccc(F)cc2)s1
  -1	2.3	7987	-1	-8	7	-14
(11) CC(=O)c1ccc(OC(=O)N(c2ccccc2)c2ccccc2)cc1
  24	0.4	2681	-1	.	.	-17
(12) CC(=O)Nc1ccc(NC(=O)Nc2cc(C)cc(C)c2)cc1
  -1	0.5	4453	-4	-1	-1	-26
(13) CCOC(=O)N1CCC(NC(=O)c2ccc3c(c2)N(Cc2ccc(F)cc2)CCS3)CC1
  3	-0.1	6129	-2	.	.	-13
(14) CSc1cccc(CN2CCCC(C(=O)Nc3cccc(-n4cccn4)c3)C2)c1 (stereo not drawn)
  6	-1.0	4260	13	-7	-4	-15
(15) Cc1ccc(C23CC4CC(CC(C(=O)N(C)C)(C4)C2)C3)cc1
  0	3.8	3369	-5	4	-12	-17
(16) CC(Cc1ccccc1)=NNC(=O)CNC(=O)c1ccccc1Br
  5	5.5	.	.	-2	5	.
(17) O=C(/C(=C/c1ccccc1Cl)c1ccccc1)N1CCOCC1
  2	2.4	1941	-15	4	2	-10
(18) CCOC(=O)c1cc2cc([N+](=O)[O-])cc(OC)c2oc1=O
  4	3.4	2264	-3	14	9	-12
(19) CCOc1ccc(S(=O)(=O)N(C)c2ccc(OCC(=O)Nc3nc4ccccc4s3)cc2)cc1
  -14	1.8	2027	13	2	6	-11
(20) O=C(c1ccccc1)N(CCO)Cc1cc2cc3c(cc2[nH]c1=O)OCCO3
  -9	-2.7	3629	6	-6	-3	-17
(21) CC1CCCC(NC(=O)CN2CCN(Cc3ccc(Cl)cc3)C2=O)C1C (stereo not drawn)
  33	-3.5	3619	11	.	.	-21
(22) Cn1nc(C(F)(F)F)c(C=NOC(=O)c2ccccc2)c1Cl
  -3	2.3	.	.	3	10	.
(23) CC(C)CNC(=S)N(CCCO)Cc1cc2cc3c(cc2[nH]c1=O)OCO3
  6	4.8	4092	-3	12	9	-27
(24) COc1ccc(C(=O)N2CCN(c3ccc(NC(=O)c4cccs4)cc3)CC2)cc1
  1	-1.7	4721	2	-4	-7	17
(25) CCOc1cc(C(=O)OCC(=O)NC(C)c2ccccc2)ccc1OCC(=O)N1CCOCC1 (stereo not drawn)
  1	1.4	4386	1	5	-3	0
(26) CCCN(CCC)CCCNC(=O)c1cc2cc3ccc(Cl)cc3nc2o1
  11	-6.3	4175	-1	15	3	-26
(27) O=C(NCc1nc2ccccc2[nH]1)C1=C[C@H](c2ccc(C(F)(F)F)cc2)C[C@H](OCc2ccc(CO)cc2)O1
  .	.	4258	-12	.	.	-2
(28) COc1cccc(NC(=O)CCc2ccccc2)c1
  6	3.2	3812	.	5	8	-47
(29) COC(=O)[C@@]12CCCCN1[C@H](c1ccc(-c3cccc(Cl)c3)c(OC)c1)[C@H]1C(=O)N(C)C(=O)[C@H]12
  .	.	4200	-5	.	.	-8
(30) CCc1ccc2c(CC(=O)Nc3nnc(C4CC4)s3)coc2c1
  -3	3.6	2727	-6	4	12	-10
(31) CC1=CC(C)(C)Nc2ccc(C)cc21
  -2	3.1	7926	5	4	11	-20
(32) CC(C)(C)c1ccc(NC(=O)C2=CN3CCS(=O)(=O)N=C3C=C2)cc1
  0	3.1	3596	.	4	7	2
(33) c1ccc(-c2nnc(CSc3nncs3)o2)cc1
  -5	5.1	?	5	12	4	-24
(34) Cc1c(-c2ccccc2)c(=O)oc2cc(O)ccc12
  -6	1.5	6284	3	1	-4	-15
(35) CCOc1ccccc1N(CC)C(=O)c1nn(C)c2c1CSc1ccccc1-2
  .	.	5274	6	.	.	-13
(36) Cc1nccn1CCCN1C(=O)OC2(CCCCC2)C1(C)O (stereo not drawn)
  5	2.7	2769	-2	.	.	-8
(37) CC(=O)Oc1ccc2nc(-c3ccco3)oc(=O)c2c1
  .	.	3759	-2	.	.	-23
(38) Cn1nnc(NC(=O)c2ccc([N+](=O)[O-])cc2Cl)n1
  -1	8.3	2502	-1	4	0	-25
(39) C[C@H](NC(=O)c1ccco1)C(=O)OCC(=O)N1CC(=O)Nc2ccccc21
  7	3.3	3756	.	4	3	-14
(40) O=C(NCCCn1ccnc1)c1c(F)cccc1F
  -1	-0.3	5315	-10	11	-12	-33

Random excerpt: 2 compounds from above.
Screens in order: Sa ugtP lethal	RN4220 kill	Autofluor counter	BJeLR lethal	Mtb hypoxia inh	Mtb hypoxia inh growth	PrP UTR inh
(35) CCOc1ccccc1N(CC)C(=O)c1nn(C)c2c1CSc1ccccc1-2
  .	.	5274	6	.	.	-13
(38) Cn1nnc(NC(=O)c2ccc([N+](=O)[O-])cc2Cl)n1
  -1	8.3	2502	-1	4	0	-25

Returning to the listing with the 6 entries that preceded the break.
Screens in order: Sa ugtP lethal	RN4220 kill	Autofluor counter	BJeLR lethal	Mtb hypoxia inh	Mtb hypoxia inh growth	PrP UTR inh
(35) CCOc1ccccc1N(CC)C(=O)c1nn(C)c2c1CSc1ccccc1-2
  .	.	5274	6	.	.	-13
(36) Cc1nccn1CCCN1C(=O)OC2(CCCCC2)C1(C)O (stereo not drawn)
  5	2.7	2769	-2	.	.	-8
(37) CC(=O)Oc1ccc2nc(-c3ccco3)oc(=O)c2c1
  .	.	3759	-2	.	.	-23
(38) Cn1nnc(NC(=O)c2ccc([N+](=O)[O-])cc2Cl)n1
  -1	8.3	2502	-1	4	0	-25
(39) C[C@H](NC(=O)c1ccco1)C(=O)OCC(=O)N1CC(=O)Nc2ccccc21
  7	3.3	3756	.	4	3	-14
(40) O=C(NCCCn1ccnc1)c1c(F)cccc1F
  -1	-0.3	5315	-10	11	-12	-33
(41) CC(C)N(C(=O)[C@H]1CC(CC(=O)NCc2ccco2)C(=O)N2CCc3c([nH]c4ccccc34)[C@]12C)C(C)C (stereo partly drawn)
  -7	2.7	3992	.	5	4	-21
(42) CC(=NNC(=O)c1cc(C)[nH]n1)c1ccco1
  -7	-1.2	.	.	-5	5	.
(43) Cc1ccc(C(=O)OCC(=O)N2CCCCCC2)c(O)c1
  1	1.0	2995	.	1	-5	-23
(44) Cc1cc(NS(=O)(=O)c2ccc(NC(=S)NC(=O)c3ccc(F)cc3Cl)cc2)no1
  10	17	7967	1	14	19	-14
(45) Cc1cccc(N(CC(=O)Nc2ccc(CC#N)cc2)S(C)(=O)=O)c1
  4	6.4	4822	0	6	8	-6
(46) Cc1ccc(O)c(CNc2nccs2)c1
  -2	-1.5	3967	-7	-2	15	-8
(47) COC(=O)C1C[C@@]2(O)C(O)C(O)C(O)CC2N1CC1CCCCC1 (stereo partly drawn)
  4	5.2	.	.	9	15	.
(48) CCC(C)NS(=O)(=O)c1ccc(OCC(=O)Nc2ccc3c(c2)OCCO3)cc1 (stereo not drawn)
  -6	-2.4	9246	3	-1	4	-25
(49) Cn1c(CN2CCCCC2)nc2cc(NC(=O)c3cccc(Br)c3)ccc21
  -2	-0.4	8491	30	1	8	.
(50) CCCCn1c(N)c(N(CCOC)C(=O)c2ccc(F)c(S(=O)(=O)N3CCOCC3)c2)c(=O)[nH]c1=O
  5	2.0	4094	5	6	-2	-20
(51) CCC(C)C1COCCS(=O)(=O)N1Cc1ccc(Cl)cc1Cl (stereo not drawn)
  -21	4.5	.	.	5	4	.
(52) CCOC(=O)N1CCC(N2Cc3cccc(C(=O)NCc4ccc(OC)cc4)c3C2=O)CC1
  1	3.6	.	2	11	2	.
(53) S=C(NNc1nc(Nc2ccccc2)nc(N2CCCCC2)n1)NC1CCCCC1
  -30	-19	2360	2	4	10	-26
(54) C=CCn1c(SCC2CCCCO2)nc2sc(CC)cc2c1=O (stereo not drawn)
  -12	2.3	4350	-6	2	-1	-6
(55) Cc1cccnc1NC(=O)c1cccc(S(=O)(=O)N2CCCc3ccccc32)c1
  -1	4.3	3988	11	-3	0	7
(56) CCOC(=O)C(=O)Nc1ccccc1C(N)=O
  -1	2.2	2742	-2	.	.	-24
(57) COc1ccc(C(=O)O/N=C(\N)c2ccccn2)cc1[N+](=O)[O-]
  12	4.0	3655	-15	9	2	-57
(58) COc1cc(N2C(=O)CC(=O)NC2=O)cc(OC)c1OC
  16	4.9	3170	9	11	3	-36
(59) CCOC(=O)CNS(=O)(=O)c1ccc(C(=O)O)cc1
  0	1.2	4941	3	.	.	-8
(60) COc1cc(NC(=O)N[C@H](C(=O)O)C(C)C)cc(OC)c1
  -2	0.6	21545*	-4	0	10	12
(61) C#CCOCCOCCOCCNc1nc(N2CCN(C(=O)C(CCCCN)n3cc(C(N)CO)nn3)CC2)nc(N2CCN(C(=O)C(Cc3cc4ccccc4[nH]3)n3cc(C(N)CC(C)C)nn3)CC2)n1 (stereo not drawn)
  3	-0.4	.	.	11	14	.
(62) CCc1n[nH]c(=S)n1N=Cc1cccc2ccccc12
  2	4.6	.	.	16	9	.
(63) Cc1ccc(CC(=O)OCCNC(=O)c2cccnc2)cc1
  6	5.3	9747	-2	1	-2	-6
(64) CCC(C)(C)C1CCc2c(sc(NC(=O)c3ccoc3C)c2C(N)=O)C1 (stereo not drawn)
  8	2.6	4431	-9	6	0	-17
(65) CC1(C)CC2CC(C)(CN2S(=O)(=O)c2cccc(C(N)=O)c2)C1 (stereo not drawn)
  -2	3.9	8747	.	7	-6	-24
(66) COc1ccc(/C=N/NC(=O)c2ccc3nc[nH]c3c2)c(OC)c1
  .	.	4458	-3	.	.	7
(67) O=C(NCC1COc2ccccc2O1)c1ccc(Cl)c(S(=O)(=O)N2CCCC2)c1 (stereo not drawn)
  0	2.9	3641	.	-5	-6	8
(68) COc1ccc(/C=N/NC(=O)C(=O)N2CCCCCC2)cc1
  .	.	3497	4	.	.	-18
(69) CC(C)c1ccc(NC(=O)COC(=O)COc2ccccc2)cc1
  0	-0.7	2557	.	-1	5	-16
